From PubChem
PINK1 modulator: A Quantitative High throughput Screen to Identify Chemical Modulators of PINK1 Expression; Potency, µM (top dose mostly 76.6 µM), without a hit: at the highest dose activation (PINK1 increase), usual class: activators; PINK1 immunofluorescence, high-content cytometry, 24 h; 410,000 compounds, 0.2% hits; active = well fitted activation curve with a large enough effect; inconclusive = small, poorly fitted or top-dose-only effect; inactive = flat fitted curve, though single readings scatter; cell line not stated here;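 note: potency is the fitted concentration of half-maximal effect; % of control where 0% means no effect; nearly all actives have a fitted effect of over 65% in size; a mitochondrial uncoupler was the plate control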
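Decision-based qHTS: stable cells, 24 h exposure to five compound concentrations, CCCP as control. Fixed cells stained for PINK1 plus nuclear, mitochondrial and cell markers, cytometer read.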
TRPV1 potentiator: HTS Assay for Compounds that Act as Potentiators of the Vanilloid Receptor 1 | Transient receptor potential cation channel subfamily V member 1 (Homo sapiens), Q8NER1 | TRPV1-expressing cells, Fluo-8 calcium influx, capsaicin EC20 potentiation; host cell line not named in the record; control for the full effect not named in the record | potentiation, % at 8.33 µM | 320,000 compounds, 0.02% hits | AID 540277, 2011; active means potentiation above 80%; inconclusive means 30% to 80%; inactive means below 30%; note: 0% is about no effect
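TRPV1-expressing cells were cultured overnight at 35.5C and loaded with Fluo-8 calcium dye for 40 to 90 min at room temperature. After a 10 s baseline, compound was added and calcium influx was read kinetically for 3 min (ex 480/em 520 nm).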
ClpP mod: qHTS Assay for Activators of ClpP; purified B. subtilis ClpP, FRET peptide cleavage, 20 min; Potency, µM (top dose mostly 57.5 µM), for the others: top-dose activity change, negative = active; 340,000 compounds, 1.9% hits; ATP-dependent Clp protease proteolytic subunit (Bacillus subtilis (strain 168)), P80244; AID 651965, 2013; active = well fitted falling curve with a large enough effect; inconclusive = small, poorly fitted or top-dose-only effect; inactive = no such curve, though single readings can be large or run the other way; note: potency is the fitted concentration of half-maximal effect; the source files actives as falling curves though it sought activators and does not explain the sign; nearly all actives have a fitted effect of over 65% in size; many hits overshoot -100%
Target sequence (P80244 whole entry, looked up): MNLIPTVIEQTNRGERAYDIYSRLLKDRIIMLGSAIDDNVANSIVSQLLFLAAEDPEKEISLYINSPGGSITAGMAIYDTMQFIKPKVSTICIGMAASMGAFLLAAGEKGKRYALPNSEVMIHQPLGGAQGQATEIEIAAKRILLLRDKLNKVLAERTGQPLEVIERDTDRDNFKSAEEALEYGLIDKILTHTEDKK
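FRET quenching reversal measured ClpP activation: 10 microg/mL B. subtilis ClpP at pH 8 with the FRET-FV decapeptide, read at 430 nm after 320 nm excitation. The 20-min minus 0-min signal was scaled between DMSO/no-enzyme wells and ADEP (5.8 microM final).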
TRPML1 blocker: qHTS for Inhibitors of the Human Mucolipin Transient Receptor Potential 1 (TRPML1); Mucolipin-1 (Homo sapiens), Q9GZU1; TRPML1-inducible cells, Ca2+ dye fluorescence, FDSS; stronger effect = lower value; inhibition of EC80 agonist-evoked calcium signal; activity change, negative = inhibition, % (concentration not given with the values); 390,000 compounds, 0.02% hits; AID 624415, 2012; in the data active means activity change below about -50%; inconclusive means about -30% to -50%; inactive means above about -30%;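 note: stimulus is agonist 54-4 at its EC80 concentration; % is set by controls: 0 for no effect and ±100 for the full control effect; the text of the record puts the active cut at -80%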
Target sequence (Q9GZU1 whole entry, looked up): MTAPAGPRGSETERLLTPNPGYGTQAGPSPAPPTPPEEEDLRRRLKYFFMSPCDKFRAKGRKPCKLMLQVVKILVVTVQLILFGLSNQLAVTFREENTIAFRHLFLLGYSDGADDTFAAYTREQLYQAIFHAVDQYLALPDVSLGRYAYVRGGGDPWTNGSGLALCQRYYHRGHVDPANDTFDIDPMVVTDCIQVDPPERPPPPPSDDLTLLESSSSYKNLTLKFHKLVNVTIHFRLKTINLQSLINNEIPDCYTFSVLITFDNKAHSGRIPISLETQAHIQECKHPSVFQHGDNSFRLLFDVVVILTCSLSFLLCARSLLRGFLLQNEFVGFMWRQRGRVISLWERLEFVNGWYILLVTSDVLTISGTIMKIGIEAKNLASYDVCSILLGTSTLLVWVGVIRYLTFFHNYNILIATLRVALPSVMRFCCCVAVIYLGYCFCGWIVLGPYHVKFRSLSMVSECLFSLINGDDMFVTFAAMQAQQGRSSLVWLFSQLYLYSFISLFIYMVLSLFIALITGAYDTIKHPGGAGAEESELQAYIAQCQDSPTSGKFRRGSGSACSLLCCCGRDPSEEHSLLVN
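TRPML1-DL cells, Tet-induced overnight (~16 h, 37 °C) at 1,500 cells/well, were loaded with Ca8 no-wash dye plus quencher for 45-90 min at room temperature. Compounds were pinned during FDSS kinetic reading; agonist 54-4 at EC80 (4 uM final) then added.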
Menin-MLL FL inh: qHTS Assay for Inhibitors Targeting the Menin-MLL Interaction in MLL Related Leukemias: Competition With Fluorescein Labeled MLL-derived Peptide. AID 1766, 2009. Fluorescence polarization, fluorescein-MLL peptide displacement from menin. 290,000 tested, under 10 active. FP activity change, % at 61.4 µM; inconclusive = falling polarisation curve, or a change in total fluorescence; inactive = total fluorescence flat and polarisation flat or rising; no compound was filed as active; the % refers to the polarisation; negative = inhibition;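 note: % of control where 0% means no effect; inhibitors lower the polarisation; unlabelled MLL peptide was the positive control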
Sfp PPTase inh: qHTS Assay for Inhibitors of Bacillus subtilis Sfp phosphopantetheinyl transferase (PPTase) | AID 1490, 2009 | Potency, µM, inactives show max response, negative = inhibition, most hits filed as inhibitors | 310,000 compounds, 3.5% hits | 4'-phosphopantetheinyl transferase ffp (Bacillus subtilis), Q9F4F7 | Biochemical Sfp PPTase activity, qHTS; active = well fitted inhibition curve with a large enough effect; inconclusive = small, poorly fitted or top-dose-only effect, or another doubt; inactive = no such curve, though single readings can be large or run the other way;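 note: the enzyme is Sfp with the accession as filed and its product quenches rhodamine fluorescence; potency is the fitted concentration of half-maximal effect; 0% = enzyme reaction without inhibitor and -100% = no enzyme wells; top concentration of the series not given in the record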
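Fluorescence-quenching assay: 15 nM Sfp-PPTase preincubated 15 min at room temperature with compound, then 5 uM rhodamine-CoA and 12.5 uM BHQ-2-labelled YbbR peptide added. Fluorescence (ex 525/em 598 nm) read at start and after 30 min; difference gives rate.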
TRPML1 ag: qHTS for Agonists of the Human Mucolipin Transient Receptor Potential 1 (TRPML1). Mucolipin-1 (Homo sapiens), Q9GZU1. TRPML1-expressing cells, Ca2+ dye fluorescence, FDSS; host cell line not named in the record; reference of the full effect not given here. activation, % (test concentration not listed). 410,000 compounds, 0.12% hits. AID 624414, 2012; in the data active = activation above about 50%; inconclusive = about 30% to 50%; inactive = below about 30%; note: 0% is about no effect; the text of the record puts the active cut at 80%
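TRPML1-DL cells, Tet-induced overnight (~16 h, 37 degrees C), loaded 45-90 min at room temperature with Ca8 no-wash calcium dye plus quencher. FDSS fluorescence: 10 s baseline, compound pin-transfer, 110 s agonist read, then EC80 54-4 (4uM final) and 110 s antagonist read.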
* marks the source's active call; other numbers are inactive results; & = joins results of further samples; [ ] = remark or other dose.

Screening CC(C)NC(=O)c1ccccc1S(=O)c1ccccc1C#N (configuration not stated) returned PINK1 modulator 1.1%, TRPV1 potentiator -3, ClpP mod -0.8%, TRPML1 blocker 0, Menin-MLL FL inh 6.5, Sfp PPTase inh 16% and TRPML1 ag -0.5.
For O=C(Cc1cccs1)N/N=C/c1ccccc1 the results were PINK1 modulator 0.9%, TRPV1 potentiator -23, TRPML1 blocker 7, Menin-MLL FL inh 3.4, Sfp PPTase inh 9% and TRPML1 ag -0.7.
CC(C)(C)c1ccc(CC(=O)N2CCC2(C)C(=O)O)cc1 (configuration not stated) was read as PINK1 modulator 1.3%, ClpP mod -1.3% and TRPML1 ag -0.4.
`COc1ccc(N2CCN(CCCn3c(=S)[nH]c4ccccc4c3=O)CC2)cc1` gave PINK1 modulator 3.1%, TRPV1 potentiator -18, ClpP mod 0.4%, TRPML1 blocker 5, Menin-MLL FL inh -2.6, Sfp PPTase inh 2% and TRPML1 ag 1.2.
Screening CC(C)(C)OC(=O)COc1cc(OCC(=O)OC(C)(C)C)c2c(=O)cc(-c3ccccc3)oc2c1 returned PINK1 modulator 5.8%[38.3 µM], TRPV1 potentiator 20, ClpP mod inconclusive, TRPML1 blocker 69, Menin-MLL FL inh 6.2, Sfp PPTase inh 2% and TRPML1 ag 4.3.
For CCN(CC)S(=O)(=O)c1ccc(OC)c(NC(=O)Cn2cnc3c2c(=O)n(C)c(=O)n3C)c1 the results were PINK1 modulator 0.7%, TRPV1 potentiator -3, ClpP mod 2.8%, TRPML1 blocker -19, Menin-MLL FL inh -0.5, Sfp PPTase inh 15% and TRPML1 ag 0.0.
`CCCSc1ccc(C(=O)Nc2ccc(Cl)cc2)cn1` gave PINK1 modulator -1.4%, TRPV1 potentiator 0, TRPML1 blocker -8, Menin-MLL FL inh -0.3, Sfp PPTase inh 16% and TRPML1 ag -0.1.
For O=C(NCC(c1ccco1)N1CCCCC1)c1ccc2c(c1)S(=O)(=O)c1ccccc1C2=O (configuration not stated) the results were PINK1 modulator 0.2%, TRPV1 potentiator 5, ClpP mod -1.5%, TRPML1 blocker -12, Menin-MLL FL inh 3.5, Sfp PPTase inh -1% and TRPML1 ag 0.4.
For CN(C)c1ccc(/C=N/NC2=NS(=O)(=O)c3ccccc32)cc1 the results were PINK1 modulator 3.7%, TRPV1 potentiator 15, TRPML1 blocker -6, Menin-MLL FL inh 14, Sfp PPTase inh 13% and TRPML1 ag 1.3.
For CC1CN(C(=O)c2ccc(S(=O)(=O)Nc3ccccc3F)cc2)CC(C)O1 (configuration not stated) the results were PINK1 modulator -0.7%, TRPV1 potentiator 17, TRPML1 blocker 5 and TRPML1 ag 0.2.
Screening Cc1ccc(C(=O)NCCN2C3=NC[C@H](C)N3C[C@H]2Cc2ccc(O)cc2)cc1Br returned PINK1 modulator -0.9%, TRPV1 potentiator 22, ClpP mod -1.8%, TRPML1 blocker 7, Menin-MLL FL inh -2.2, Sfp PPTase inh 1% and TRPML1 ag 0.0.
CCC(C)NC(=O)Cn1c(-c2cccs2)cc2cc(Cl)ccc21 (configuration not stated) was read as PINK1 modulator 1.0%, ClpP mod inconclusive, TRPML1 blocker -3 and TRPML1 ag 0.1.
CCOc1ccc(OCCOc2ccc(/C=C/C(=O)O)cc2OCC)cc1 was read as PINK1 modulator -0.6%, TRPV1 potentiator 17, TRPML1 blocker 3, Menin-MLL FL inh 0.1, Sfp PPTase inh 17% and TRPML1 ag -0.4.
O=C(NCC(c1ccco1)N1CCOCC1)c1ccc([N+](=O)[O-])cc1 (configuration not stated) was read as PINK1 modulator -0.1%, TRPV1 potentiator -16, ClpP mod 0.7%, Menin-MLL FL inh 1.7 and Sfp PPTase inh -1%.
`NC(=O)c1nsc(C(=O)N(c2ccccc2)C(C(=O)NCC2CCCO2)c2cccs2)c1N` (configuration not stated) gave PINK1 modulator -1.7%, TRPV1 potentiator 12, ClpP mod 1.6%, TRPML1 blocker 22, Menin-MLL FL inh 0.4, Sfp PPTase inh 12% and TRPML1 ag 1.7.
Screening CC1CCN(S(=O)(=O)c2ccc(NC(=O)CSc3ncccc3C(=O)O)cc2)CC1 returned TRPV1 potentiator -6, ClpP mod -1.5%, TRPML1 blocker 14, Menin-MLL FL inh 7.1, Sfp PPTase inh 8% and TRPML1 ag 0.1.
`CCOC(=O)Cc1csc(NC(=O)c2sc3nc4ccc(CC)cc4cc3c2N)n1` gave PINK1 modulator 40µM*, ClpP mod 2.0%, TRPML1 blocker -13, Menin-MLL FL inh inconclusive, Sfp PPTase inh -15% and TRPML1 ag 8.0.
Screening Cc1cc2c(cc3c(=O)n(CC(=O)NCc4ccccc4Br)ncn32)s1 returned PINK1 modulator 2.8%, ClpP mod 0.8%, TRPML1 blocker 0 and TRPML1 ag 0.1.
`Cc1cc(C)cc(Nc2sc(C(=O)c3ccccc3)c(N)c2S(=O)(=O)c2ccccc2)c1` gave PINK1 modulator 3.2%, ClpP mod -9.6%, TRPML1 blocker -11 and TRPML1 ag 2.2.
Screening C#CCOCCOCCOCCNc1nc(N2CCN(C(=O)[C@H](CCCCN)n3cc(CN)nn3)CC2)nc(N2CCN(C(=O)[C@H](CCC(=O)O)n3cc([C@@H](N)CCCCN)nn3)CC2)n1 returned PINK1 modulator -0.1%, ClpP mod 0.4%, TRPML1 blocker 40 and TRPML1 ag -0.8.
Screening CCC(C(=O)OC)n1cnc2c(oc3ccccc32)c1=O (configuration not stated) returned PINK1 modulator -0.2%, TRPV1 potentiator -7, ClpP mod -0.4%, TRPML1 blocker 7, Sfp PPTase inh 16% and TRPML1 ag 0.2.
Screening COc1cc(CNC(=O)C2CCCCN2S(=O)(=O)c2ccc(F)cc2)cc(OC)c1OC (configuration not stated) returned PINK1 modulator 2.8%, ClpP mod 0.0%, TRPML1 blocker -3 and TRPML1 ag -0.9.
Screening COc1ccc(/C=C/C(=O)NCC(=O)n2nc(C)cc2C)cc1 returned PINK1 modulator 2.2%, TRPV1 potentiator 13, ClpP mod -6.2%, TRPML1 blocker 3, Menin-MLL FL inh -1.0, Sfp PPTase inh 10% and TRPML1 ag -1.1.
Screening Cc1c(Cl)cccc1NC(=O)CN1C(=O)COc2ccc(S(=O)(=O)N3CCOCC3)cc21 returned PINK1 modulator 1.4%, ClpP mod -0.8%, TRPML1 blocker 4 and TRPML1 ag 3.0.
For O=C(NCCNC(=O)c1cnccn1)c1ccc(Cl)cc1 the results were PINK1 modulator 0.1%, TRPV1 potentiator -2, ClpP mod -3.6%, TRPML1 blocker 6, Menin-MLL FL inh 1.2, Sfp PPTase inh 4% and TRPML1 ag 0.8.
`O=C(OCCN=C1NS(=O)(=O)c2ccccc21)c1ccco1` gave PINK1 modulator 0.8%, TRPV1 potentiator -25, TRPML1 blocker -18, Menin-MLL FL inh 2.5, Sfp PPTase inh 8% and TRPML1 ag 1.0.
For Nc1c(C2CCCCC2)c(=O)on1C(=O)c1ccccc1 the results were PINK1 modulator -1.2%, TRPML1 blocker -2 and TRPML1 ag -0.5.
`CC(=O)c1ccc(NC(=O)Cn2c(-n3nc(C)cc3C)nc(C)cc2=O)cc1` gave PINK1 modulator 13%, ClpP mod 0.3%, TRPML1 blocker -17 and TRPML1 ag 0.5.
`COc1ccc(CCNc2nc(N3CCOCC3)nc(N3CCOCC3)n2)cc1OC` gave PINK1 modulator -0.6%, TRPV1 potentiator -33, ClpP mod -4.2%, TRPML1 blocker -4, Menin-MLL FL inh 3.5, Sfp PPTase inh -1% and TRPML1 ag -0.3.
For COc1ccc(CNCC(O)COc2ccc(C(C)(C)c3ccccc3)cc2)cc1 (configuration not stated) the results were PINK1 modulator -4.1%, TRPV1 potentiator -9, ClpP mod 0.6%, TRPML1 blocker -2, Menin-MLL FL inh -0.1, Sfp PPTase inh 56µM* and TRPML1 ag 0.9.
For CCOc1ccc(S(=O)(=O)N2CCN(C(=O)c3ccccc3Cc3ccccc3)CC2)cc1 the results were PINK1 modulator 7.1%, TRPV1 potentiator 0, ClpP mod 1.6%, TRPML1 blocker -7 and TRPML1 ag 3.5.
`CC(=O)C1=C(C)N(CC2CC2)C(=O)N[C@H]1c1ccccc1` gave PINK1 modulator 1.0%, TRPV1 potentiator 10, ClpP mod 1.0%, TRPML1 blocker -15, Menin-MLL FL inh -1.8&-0.7, Sfp PPTase inh 3%&11% and TRPML1 ag -0.7.
O=c1c2ccccc2nc2n1CCCCC2 was read as PINK1 modulator -1.1%, TRPV1 potentiator -2, ClpP mod -0.6%, TRPML1 blocker -11, Menin-MLL FL inh 2.9, Sfp PPTase inh 21% and TRPML1 ag -0.3.
Screening CCNC(=O)C1(C)CCCN(C(=O)c2nc3ccccc3s2)C1 (configuration not stated) returned PINK1 modulator -0.1%, ClpP mod -1.7% and TRPML1 ag -0.5.
For O=C(NC(c1ccccc1)c1ccccc1)c1ccc(=O)[nH]n1 the results were PINK1 modulator -0.1%, TRPV1 potentiator -22, TRPML1 blocker -11, Menin-MLL FL inh 1.0, Sfp PPTase inh 3% and TRPML1 ag -0.3.
